# YopH PTP inh: blocks Yersinia enterocolitica YopH tyrosine phosphatase | fluorescence Ex485/Em525 | inhibition, %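 (about 10 µM by stock and volumes)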 | 0.16% of 140,000 active | AID 898;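 active = inhibition of 50% or more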;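 note: controls were vehicle for no effect and minimum signal wells for full effect; inactives centre near -20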
# Mtb H37Rv: M. tuberculosis H37Rv growth inhibitors, H37Rv strain (AID 1626) | M. tuberculosis H37Rv growth inhibition; higher % means a stronger effect | inhibition, % at 10 µM; hits with a dose series show IC50 in µM | 0.95% of 220,000 active;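 active = confirmed in a dose series; inconclusive = inhibition above 80% but not taken into the dose series; inactive = below 80% or under 30% at every dose of the series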;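 note: bacteria incubated seven days before Alamar blue readout; 0% = bacteria only wells and 100% = bacteria with antibiotic wells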
# RecA splice inh: Mtb RecA intein splicing inhibition; P9WHJ3; 0.75% of 290,000 active; cell-free RecA intein splicing, fluorescence; inhibition, %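 (about 9 µM by stock and volumes)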; in the data active = inhibition above about 30%; inconclusive = no clear call, values can overlap the other calls;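 note: 0% = vehicle wells and 100% = reference inhibitor control wells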
# Target sequence (P9WHJ3 whole entry, looked up, canonical isoform): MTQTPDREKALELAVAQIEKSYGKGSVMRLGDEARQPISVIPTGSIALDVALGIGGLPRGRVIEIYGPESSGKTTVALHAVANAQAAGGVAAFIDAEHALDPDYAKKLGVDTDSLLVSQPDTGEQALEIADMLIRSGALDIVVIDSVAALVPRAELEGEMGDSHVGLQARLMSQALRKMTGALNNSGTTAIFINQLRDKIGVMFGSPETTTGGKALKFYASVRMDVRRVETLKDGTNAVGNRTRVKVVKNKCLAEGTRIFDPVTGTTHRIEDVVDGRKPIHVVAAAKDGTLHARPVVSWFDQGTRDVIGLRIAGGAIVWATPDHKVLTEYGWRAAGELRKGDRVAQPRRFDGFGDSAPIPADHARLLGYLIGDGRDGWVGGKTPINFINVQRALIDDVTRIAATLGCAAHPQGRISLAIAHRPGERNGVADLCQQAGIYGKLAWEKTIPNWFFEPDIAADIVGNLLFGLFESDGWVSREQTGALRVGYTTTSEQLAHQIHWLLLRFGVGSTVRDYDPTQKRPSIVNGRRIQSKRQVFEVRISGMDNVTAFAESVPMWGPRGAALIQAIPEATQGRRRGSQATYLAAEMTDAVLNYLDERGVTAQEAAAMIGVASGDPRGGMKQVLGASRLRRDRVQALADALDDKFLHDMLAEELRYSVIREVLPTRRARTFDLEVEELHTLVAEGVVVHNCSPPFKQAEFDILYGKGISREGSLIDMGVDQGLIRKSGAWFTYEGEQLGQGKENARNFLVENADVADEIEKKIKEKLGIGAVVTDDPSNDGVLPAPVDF
# Mtb bLac sens: beta-lactam sensitization of Mtb H37Rv. M. tuberculosis H37Rv growth with meropenem, percent inhibition; hits of this screen are not shown here. AID 434955. 0.27% of 330,000 active. inhibition, % at 25 µM;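 active = about 74% or more and at least 40 points above the plate without the antibiotic, then above 30% in a dose series; inconclusive = first-round hits that could not be retested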;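 note: growth measured after seven days incubation then overnight dye step; 0% = bacteria only wells and 100% = bacteria with antibiotic; twin plates without the antibiotic show which effects depend on it; some results filed as inactive read as strong as hits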
# Arbovirus inh: arbovirus infection inhibition | arbovirus infection cell-based antiviral screen | inhibition, % at 10 µM | 0.37% of 200,000 active;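 active = inhibition from about 30%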;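 note: bluetongue infection of BSR cells; cell survival read as ATP light after 72 h; 0% = infected wells without compound and 100% = uninfected wells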
# Arbovirus inh repeat: also measured in Arbovirus inh; calls as there; inhibition, %; measured here: 10K subset replicate screen; many hits read low in the repeat;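 first of two repeat runs on a subset; 0% = infected and 100% = uninfected wells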
# Active calls of the source: *; i = inactive; ? = inconclusive; / = not tested or not shown; & = joins results of further samples.
SMILES,YopH PTP inh,Mtb H37Rv,RecA splice inh,Mtb bLac sens,Arbovirus inh,others
Cn1ccc(CC(=O)N2CCC(N3CCC(C(=O)N4CCCC4)CC3)CC2)c1,/,-6%,-2.5,3,/,
Cc1ccc2nc(NC(=O)C3CSC4(C)CCC(=O)N34)sc2c1 (stereo not given),/,/,1.8,-7,/,
CCCC1C(=O)N(Cc2ccccc2)C(=O)CC1C (stereo not given),/,7%,1.1,-5,/,
C=CCn1c(SCC(=O)Nc2nc(C)cs2)nnc1C(C)NC(=O)c1ccccc1Cl (stereo not given),8,-2%,0.8,-3,0,
Cc1ccc(C(C)C)c(OCCCN2C(=O)NC(C)(C)C2=O)c1,10,3%,/,9,-6,
CC(=O)Nc1ccc(N=Cc2ccc[nH]2)cc1,3,-6%,-0.3,-5,-2,Arbovirus inh repeat=2
CN1CCN(CC#CCC(O)(c2ccccc2)c2ccccc2)CC1,/,/,-2.1,-7,/,
NNC(=O)c1ccc(COc2cccc3ccccc23)cc1,-28,2%,26,21,-15,
CCOC(=O)N1CCN(CC(=O)c2ccc(O)cc2O)CC1,/,/,-4.3,3,/,
CCCn1cnc2scc(-c3ccc(OC)cc3)c2c1=O,/,/,1.0,2,/,
CCO[C@@H]1OC(C(=O)N2CCN(Cc3ccc4c(c3)OCO4)CC2)=C[C@H](C2CCCCC2)[C@H]1CCCO,/,7%,7.7,11,-12,
CC1=CC(C)(C)N=C(Nc2nc(C)c3cc(C)cc(C)c3n2)N1,/,6%,2.2,46,-41,
Cc1ccc(CNC(=O)CCS(=O)(=O)c2ccc3nc(C)sc3c2)cc1,/,/,-3.4,-6,/,
CCc1[nH]nc2c1C(c1ccncc1)C(C#N)=C(N)O2 (stereo not given),-37,-5%,25,7,10,
O=C1N/C(=N/N=C/c2ccco2)SC1Cc1ccccc1 (stereo not given),/,10%,/,60,-5,
CCCCNC(=O)Oc1ccc(C(=O)N2c3ccccc3NC(=O)C2C)cc1 (stereo not given),/,/,-2.3,-2,/,
Cc1cccc(NC(=S)N/N=C/c2ccc3c(c2)OCO3)c1,-19,12%,3.2,41,-2,
Cc1cc(NC(=O)CSc2nnc(Cc3cccn3C)n2CCc2ccccc2)no1,-19,3%,/,-8,-2,Arbovirus inh repeat=1
COc1cc(OC)c(OC)cc1CNCc1ccc2c(c1)OCO2,/,/,-3.6,-3,/,
COC(=O)c1cc(NC(=O)c2c(C)noc2C)ccc1N1CCOCC1,/,/,-0.3,-3,/,
CCOC(=O)C1(CCCc2ccccc2)CCN(Cc2cn(CC)nc2C)CC1,/,6%,7.4,-3,-3,
CC(=O)N1CCN(CC(=O)O)CC1,/,-6%,-0.3,-4,15,
O=C(/C=C/c1ccccc1)Nn1c(-c2cccs2)nc2ccccc2c1=O,-12,12%,-0.3,-5,-11,
CCn1c(N2CCN(C(=S)NCCc3ccccc3)CC2)nc2ccccc21,-19,47%,6.3,96,-15,
Cn1c(SCC(=O)NCCc2ccccc2)nnc1-c1ccncc1,-32,-21%,-0.3,3,-3,

# Molecules from the list above that contain an aryl methoxy group:
SMILES,YopH PTP inh,Mtb H37Rv,RecA splice inh,Mtb bLac sens,Arbovirus inh,others
CCCn1cnc2scc(-c3ccc(OC)cc3)c2c1=O,/,/,1.0,2,/,
COc1cc(OC)c(OC)cc1CNCc1ccc2c(c1)OCO2,/,/,-3.6,-3,/,

# Continued:
SMILES,YopH PTP inh,Mtb H37Rv,RecA splice inh,Mtb bLac sens,Arbovirus inh,others
O=C(c1ccccc1)c1ccc(OCCn2cnc3ccccc3c2=O)cc1,18,12%,2.3,-1,9,
O=C(CCN1CCN(c2ccccc2)CC1)c1ccc(Br)cc1,/,/,-0.8,99,/,
COC(=O)C1=C(C)NC(=O)C1(NS(=O)(=O)c1ccc(NC(C)=O)cc1)C(F)(F)F (stereo not given),-26,2%,/,5,3,
COc1ccc(OC)c(/C=N/NC(=O)CNC(=O)c2cccc3ccccc23)c1,/,/,-3.1,0,/,
O=C(O)c1cccc2cccnc12,-20,-16%,-2.5,0,-1,
Cc1nc(-c2ccc(F)cc2)c(CC(=O)N2CCN(S(=O)(=O)c3ccc(F)cc3)CC2)s1,/,/,-0.3,?,/,
CC(=O)c1ccc(S(=O)(=O)N2CCCCC2C(=O)O)cc1 (stereo not given),/,7%,0.0,2,10,
COc1cc(/C=N/NC(=O)/C(=C/c2ccccc2)CCO)ccc1O,-14,-2%,-3.3,-6,-3,
CCN1C(=O)[C@H]2[C@@H](c3ccc(C)cc3)N3C(=O)N(c4cccc(Cl)c4)C(=O)[C@@]3(CC)[C@H]2C1=O,/,/,-2.7,-2,/,
C[C@H](NC(=O)c1[nH]cnc1C(=O)Nc1ccc(Cl)cc1)C(=O)OC(C)(C)C,/,52%,0.7,/,/,
Cc1ccc(S(=O)(=O)N(C)C)cc1NC(=O)COC(=O)C1COc2ccccc2O1 (stereo not given),/,3%,/,0,14,
CC(C)(NO)/C(=N\O)c1ccc(Cl)cc1,-6,1%,-0.9,-4,2,
COc1ccc(/C=C/C(=O)Nc2cc(=O)n(C)c(=O)n2C)cc1,-23,6%,2.9,0,0,
Cc1ccc(-c2nc3cnccn3c2Nc2ccc3c(c2)OCO3)cc1,-36,20%,8.7,3,-17,
CC(C)(C)c1ccc(-c2conc2N)cc1,-7,-1%,-1.2,47,-7,
Cc1[nH]c(=O)[nH]c(=O)c1S(=O)(=O)Nc1ccc(S(N)(=O)=O)cc1,/,/,0.0,0,/,
CCc1ccc(S(=O)(=O)NC(=S)Nc2ccccc2)cc1,/,-7%,-0.3,-7,1,
O=c1[nH]c(O)c(N=Nc2cccc(S(=O)(=O)N3CCOCC3)c2)c(=O)[nH]1,/,-1%,1.0,2,-1,
C=CCn1c(SCC(N)=O)nnc1-c1ccccc1O,13,-7%,1.9,-1,-2,
CC(C)(C)N1CC(C(=O)Nc2cccc(Cl)c2Cl)CC1=O (stereo not given),/,/,1.4,-7,/,
Cc1ccnc(NC(=O)CCC(=O)N(CC(=O)NCc2ccc(F)cc2)Cc2ccccc2)c1,/,/,-1.8,7,/,
COC(=O)Nc1nc2ccc(Sc3ccccc3)cc2[nH]1,-36,7%,2.3,5,-21,
O=S1(=O)CCN=C2SC3=C(CCCC3)N21,-40,-3%,0.0,-10,7,
CNC(=S)N/N=C/c1cn(CCOc2ccccc2OC)c2ccccc12,-27,/,2.4,4,3,
CC(=O)Nc1ccc(Br)c(Cl)c1,/,-7%,-0.8,-13,/,

# Random excerpt: 6 records from the list
SMILES,YopH PTP inh,Mtb H37Rv,RecA splice inh,Mtb bLac sens,Arbovirus inh,others
COC(=O)C1=C(C)NC(=O)C1(NS(=O)(=O)c1ccc(NC(C)=O)cc1)C(F)(F)F (stereo not given),-26,2%,/,5,3,
O=C(c1ccccc1)c1ccc(OCCn2cnc3ccccc3c2=O)cc1,18,12%,2.3,-1,9,
O=c1[nH]c(O)c(N=Nc2cccc(S(=O)(=O)N3CCOCC3)c2)c(=O)[nH]1,/,-1%,1.0,2,-1,
Cc1ccc(-c2nc3cnccn3c2Nc2ccc3c(c2)OCO3)cc1,-36,20%,8.7,3,-17,
CC(=O)c1ccc(S(=O)(=O)N2CCCCC2C(=O)O)cc1 (stereo not given),/,7%,0.0,2,10,
Cc1ccc(S(=O)(=O)N(C)C)cc1NC(=O)COC(=O)C1COc2ccccc2O1 (stereo not given),/,3%,/,0,14,

# (continued)
SMILES,YopH PTP inh,Mtb H37Rv,RecA splice inh,Mtb bLac sens,Arbovirus inh,others
O=C(c1ccc2nc[nH]c2c1)N1CCN(c2cccc(Cl)c2)CC1,/,/,2.0,3,/,
COC(=O)C1=C(C)NC(C)=C(C(=O)OC(C)C)C1c1cccc2nonc12 (stereo not given),/,14%&5%,6.7,7,6,
O=C(Cn1ncn2c(cc3ccccc32)c1=O)NCCC1=CCCCC1,-39,1%,1.9,-5,0,
CC(=O)c1cccc(S(=O)(=O)Nc2ccc3nc(C)sc3c2)c1,/,4%,-2.1,-2,12,
CC1(C)C(=O)Nc2ccccc2N1C(=O)COc1ncnc2ccccc12,-13,4%,-4.3,-6,-3,
Cc1ccccc1N(C(=O)CCCC(=O)Nc1ccccn1)C(C(=O)NC1CCCC1)c1ccc(O)cc1 (stereo not given),/,/,-1.0,4,/,
O=C(/C=C/c1ccc(O)c([N+](=O)[O-])c1)c1ccc2ccccc2c1,/,/,2.1,92,/,
COC(C(=O)Nc1ccc(S(=O)(=O)Nc2cccc3ccccc23)cc1)c1ccccc1 (stereo not given),-27,0%,3.2,3,2,
CC(=O)N1CCc2cc(S(=O)(=O)NCC(=O)NCc3ccc(F)cc3)ccc21,/,/,0.4,3,/,
CCOC(=O)C(C(C)C)C(N)Cc1ccc(F)cc1 (stereo not given),/,6%,12,-6,-4,
O=C(Nc1ccc(N2CCOCC2)c(Cl)c1)c1ccccc1F,-12,5%,1.6,17,-9,
Cc1sc(NC(=O)c2ccco2)c(C(c2ccc(F)cc2)N2CCN(C)CC2)c1C (stereo not given),/,9%,6.9,1,-27,
COc1cccc(NC(=O)C(Sc2nnc3ccccn23)c2ccccc2)c1 (stereo not given),-34,1%,-0.5,-6,2,
COC(=O)[C@H]1[C@H](CCc2ccccc2)NC(=O)N(Cc2ccccc2)[C@@H]1C,/,-5%,1.0,-12,/,
COCc1nnc(NC(=O)c2ccc(NC(C)=O)cc2)s1,36,-5%,-2.5,0,3,
N=c1c(C(=O)NC2CCCC2)cc2c(=O)n3ccccc3nc2n1CC1CCCO1 (stereo not given),/,/,i,4,/,
Cc1cccc2c1NC1(CCCC1)CC2C (stereo not given),/,-8%,0.3,-7,/,
CCOC(=O)C1CCCN(c2nc3ccccc3nc2C(C#N)C(=O)OCCOC)C1 (stereo not given),-17,2%,0.1,-1,-3,
COc1ccc(/C=N/NC(=O)C(=O)N2CCCC2)cc1,/,0%,-0.6,-3,16,
CN(C)S(=O)(=O)c1cccc(NC(=O)c2ccc3c(c2)OCCO3)c1,/,/,1.4,-10,/,
CCN(CC)C(=O)Cn1c(=O)n(Cc2ccc(F)cc2)c(=O)c2sccc21,/,/,-2.6,0,/,
O=C(Nc1ccccc1)OCN1C(=O)c2ccccc2C1=O,-8,-7%,-0.3,12,-3,
CN(C)c1ccc(C=NCCc2ccc(S(N)(=O)=O)cc2)cc1,/,3%,-5.0,0,1,
Fc1cc2[nH]cnc2cc1Cl,/,-10%,0.2,-3,/,
COc1ccc(S(=O)(=O)NC(CC(=O)NCCc2ccccc2)c2ccco2)cc1 (stereo not given),34,-8%,0.3,9,-2,
SMILES,YopH PTP inh,Mtb H37Rv,RecA splice inh,Mtb bLac sens,Arbovirus inh,others
C/C(CC(=O)NC1CCCC1)=N\NC(=O)Cc1csc(N)n1,-23,28%,-1.3,-2,2,
Cc1cc(C(=O)Nc2c(F)cc(F)cc2Br)cs1,/,/,-2.7,25,/,
CCn1nc(C)c(/C=C/C(=O)Nc2ccc(C)cc2C)c1C,-12,5%,-0.5,1,6,
COc1cc(-c2nc(-c3cccc(C)c3)no2)cc(OC)c1OC,-21,62%,2.0,91,-4,Arbovirus inh repeat=11
CCN(Cc1ccccc1)C(c1ccccn1)c1nnnn1C(C)(C)CC (stereo not given),6,4%,9.7,5,-6,
CCCCC(=O)N1CCN(c2nc3ccc(Cl)cc3s2)CC1,/,/,-2.6,9,/,
COc1ccc(CNc2nc(-c3cccnc3)nn2C(C)=O)cc1,/,3%,-2.4,13,-4,
NC(=O)c1cc([N+](=O)[O-])ccc1N1CCN(Cc2ccccc2)CC1,/,/,2.7,-1,/,
COc1ccc(C(CNC(=O)C2CC(=O)N(Cc3ccc(C)cc3)C2)N(C)C)cc1 (stereo not given),-40,-1%,-5.1,-15,1,Arbovirus inh repeat=1
CCc1ccc(NC(=O)COc2coc(CN3CCc4ccccc4C3)cc2=O)cc1,/,/,-0.1,2,/,
c1cncc(C(c2nnnn2C2CCCCC2)N2CCCCC2)c1 (stereo not given),/,-6%,7.2,-14,3,
O=C(CN(C(=O)c1csnn1)c1ccccc1C(F)(F)F)NC1CCCCC1,/,/,-0.1,7,/,
COc1ccc(CNC(=O)CCCCCNc2nc(=S)[nH]c3ccccc23)cc1,/,-11%,/,1,-8,
COc1ccc2c(c1)C(=O)[C@@H](O)[C@H](c1ccc(OC)c(Br)c1)O2,-36,-4%,-0.3,-8,-5,
Cc1c(C)n2c(SCC(=O)N3CCC(C)CC3)nnc2[nH]c1=O,/,/,0.1,0,/,
CCN(CC)S(=O)(=O)c1ccc(/C=C/C(=O)Nc2c(C)n(C)n(-c3ccccc3)c2=O)cc1,/,0%,0.3,2,2,
c1ccn2cc(CSC3=NCCS3)nc2c1,-21,-7%,-0.4,5,-1,
CCOC(=O)c1cnn(-c2cc(C)c3ccccc3n2)c1N,-29,-1%,-0.7,66,3,

# Not all compounds are listed; rates above refer to the full screens.
